# Screening data deposited in PubChem BioAssay by several laboratories.
# Mtb hypoxia rep: PubChem AID 1159583; M. tuberculosis hypoxia-regulated fluorescent reporter, fluorescence; fluorescence inhibition, % (no concentration beside the values); actives 0.1% (n = 300,000);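 active means 35 to 45% if threefold the growth effect, above 45% if 1.5-fold the growth effect; inactive means the rest, general growth blockers included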;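 further: wells of about 50 µL received 100 nL stock; 0% = vehicle wells and 100% = reference inhibitor wells; whole bacteria with a GFP reporter of the hypoxia response; strong numbers were not always called active; many hits fall short of the cut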
# BJeLR lethal: MLPCN primary cell-based screen for lethality selective to Ras in HRASV12 cells; BJeLR (HRASV12) viability, CellTiter-Glo ATP luminescence, 48 h; reference of the scale not given here; inhibition, % (test concentration not listed); actives 0.17% (n = 300,000); AID 1554, 2009;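 active means replicate mean above 50%; inconclusive means above 50% but judged a plate artefact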;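 further: 50 nL library stock added to about 25 µL; numbers are from one replicate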
# Autofluor counter: flagged as autofluorescent in microsphere protease counterscreen | compound autofluorescence counterscreen, microsphere flow cytometry; active compounds read high | fluorescence intensity (test concentration not listed) | actives 3.1% (n = 360,000) | AID 624483;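 active means at least 3 SD above the mean of all compounds, about 16000 in these data; inconclusive means too few beads counted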;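 further: 100 nL of 1 mM stock went into each well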
# ugtP null kill: growth inhibition of ugtP-null S. aureus, primary screen, RN4220 ugtP deletion, OD600 | 16 h; some inactives read as strong as hits | growth inhibition, % (no concentration beside the values) | actives 0.54% (n = 330,000);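 active means z-score under -3 and OD600 up to 0.15 on both plates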;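 further: plate controls were untreated wells for no effect and antibiotic for full effect; wells of about 80 µL received 100 nL stock; the first replicate is given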
# Sa RN4220 lethal: growth inhibition of S. aureus RN4220, primary screen, OD600. 16 h. actives 0.33% (n = 330,000). inhibition, % (test concentration not listed);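 active means z-score of -3 or lower and OD600 up to 0.18 on both plates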;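 further: plate controls were untreated cells for no effect and reference antibiotic for full effect; stock transfer was 100 nL into about 80 µL; one replicate is shown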
# PrP UTR inh: inhibition of PrP 5' UTR reporter expression; cell-based PrP 5' UTR mRNA reporter, plate reader; inhibition, % (concentration not given with the values); actives 0.35% (n = 340,000); AID 488862, 2010;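 active means every replicate at 50% or more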;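 further: 0 = median of the neutral control wells; tested in H4 reporter cells; numbers are from one replicate; inactives centre near -14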
# Mtb hypoxia rep growth: further read-out of Mtb hypoxia rep, marked with its call; growth inhibition, %; measured here: M. tuberculosis growth (absorbance);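 0% = vehicle and 100% = reference antibiotic; read after six days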
# * hit, by the source's call; ? = inconclusive; . = not tested or not shown.
SMILES,Mtb hypoxia rep,Mtb hypoxia rep growth,BJeLR lethal,Autofluor counter,ugtP null kill,Sa RN4220 lethal,PrP UTR inh
COc1ccc(-n2nnnc2SCC(=O)N2CCCC2=O)cc1,7,5,.,5429,4,1.1,-11
COc1ccc(OC)c(N(CC(=O)NCC2CCCO2)S(=O)(=O)c2ccccc2)c1 (configuration not stated),11,8,13,3768,6,1.1,-23
Oc1ccccc1Cc1c(O)ccc2ccccc12,14,16,1,3676,2,-2.1,-28
Cc1ccc(-n2c(SCC(=O)N/N=C/c3ccccc3OCC(=O)O)nc3ccccc3c2=O)cc1,.,.,-6,4488,.,.,-39
Cc1ccc(NC(=O)c2cccnc2)cc1S(=O)(=O)N(C)C,0,13,2,3401,4,1.6,-6
Clc1ccc(CCNc2nc3ccccc3n3nnnc23)cc1,-2,-5,-1,6521,4,6.5,-15
CCOc1cc(CNCC(C)C)c(Cl)cc1OCC(=O)Nc1ccccc1,18,8,3,4776,2,3.4,7
COc1cc(/C=N/NC(=O)C2CCN(CC(O)COCc3ccccc3)CC2)cc(OC)c1OC (configuration not stated),.,.,4,?,.,.,-12
COc1ccc(N(CC(=O)Nc2cc(C)ccc2C)S(=O)(=O)c2c(C)noc2C)cc1,8,0,-6,.,4,4.1,-24
NS(=O)(=O)c1ccc(CCNCc2cc(Br)ccc2OCc2ccccc2)cc1,-1,2,0,2297,-4,0.3,-36
CCc1cc2c(-c3ccccc3)cc(=O)oc2c(CN2CCOCC2)c1O,1,3,-2,3599,-15,4.3,8
CCOc1cc(/C=C2\N=C(C)OC2=O)cc(Br)c1OCC(=O)OC,14,2,1,9091,11,3.4,-10
CCN1C(=O)/C(=C2\C=Cc3ccccc3N2CC)OC1=S,21,9,-1,10575,13,7.5,-45
O=C(Cc1ccc(Br)cc1)NNC(=O)c1cccs1,12,-2,.,3573,0,-0.6,-13
CC(C)=CCN1CCN(Cc2nc(C(C)C)cs2)CC1CCO (configuration not stated),7,1,6,3223,3,1.4,-16
COc1ccc(-c2c(-c3cc(OC)c(OC)c(OC)c3)noc2C)cn1,.,.,23,4029,.,.,40
Cc1ccc(S(=O)(=O)NCCC(=O)N2CCCCCCC2)cc1C,-2,5,-3,?,-2,5.4,3
O=C(CN1C(=O)NC2(CCc3ccccc32)C1=O)Nc1ccccc1Cl (configuration not stated),-2,5,.,3767,5,1.6,-20
CCOC(=O)c1ccc(-n2c(C)ccc2C)cc1,5,3,0,2451,8,-0.8,-4
O=C(CCCSc1nc(-c2ccco2)cc(C(F)(F)F)n1)NCC1CCCO1 (configuration not stated),14,0,1,3394,-4,-13,-16
O=c1[nH]c2ccsc2c(=O)n1CCO,6,1,-8,3193,17,2.3,-13
COc1ccc(S(N)(=O)=O)cc1C(=O)N(C)CC(=O)Nc1ccc(N2CCOCC2)cc1,2,0,-6,4537,-2,-1.4,-15
CC1CN(C(=O)c2cc(S(=O)(=O)N(C)c3ccc(F)cc3)ccc2Cl)CC(C)O1 (configuration not stated),11,15,11,5435,6,1.6,3
CCN1C(=O)C2C(c3ccc(SC4CCCCC4)c(OC)c3)N3CCC[C@@]3(C(=O)OC)C2C1=O (some centres not stated),12,7,.,.,9,5.6,.
Cc1cc(C)nc(-n2nc(C)c(Oc3ccccc3O)c2C)n1,3,3,-4,2843,3,6.6,-4
CCC(C)(C)c1ccc(Oc2cccc(C(=O)O)c2)cc1,1,7,-3,4605,-12,15,-42
O=C(NCC1CCCO1)c1cccc(S(=O)(=O)N2CCCCC2)c1 (configuration not stated),1,-3,.,?,4,3.9,-27
O=C1N/C(=N\N=Cc2ccccn2)SC1Cc1cccc(SC(F)F)c1 (configuration not stated),-15,-3,.,.,4,-2.3,.
c1ccc(-c2nnc(CN3CCCCC3)o2)cc1,.,.,-1,3887,6,5.2,-17
CC1CCCCN1C(=O)Cn1cnc2cc([N+](=O)[O-])ccc2c1=O (configuration not stated),-6,6,1,3289,2,1.9,-12
CCN(CC)CCNC(=O)c1ccc(N2CCCCC2)c(NS(=O)(=O)c2ccc(C)cc2)c1,-1,5,-6,2519,-11,-5.4,-4
CCc1cccc(CC)c1NC(=S)/C(=C(\[O-])c1ccc(Cl)s1)[n+]1ccccc1,1,5,9,4152,-5,1.8,-25
NC(=O)[C@@H]1CC2(CC(c3cccc(NC(=O)[C@H]4CCC(=O)N4)c3)=NO2)CN1C(=O)COc1ccc(Cl)cc1 (some centres not stated),.,.,-8,4045,.,.,-5
COc1ccc(C=NNc2ccccn2)cc1OC,9,15,.,.,5,2.5,.
O=[N+]([O-])c1cccc(P(=O)(O)c2cccc([N+](=O)[O-])c2)c1,13,5,-1,6243,1,1.8,-12
COc1ccc(-n2nccc2-c2nn(-c3cccc(OC)c3)c(=O)n(C)c2=O)cc1,.,.,4,2871,6,2.0,-9
O=C(Nc1ccccc1-c1ccccc1)c1ccccc1Br,0,14,-4,3565,-1,0.6,-16
CCN1C(=O)/C(=C2\Sc3ccccc3N2CC)OC1=S,.,.,3,2019,.,.,4
Cc1ccc(S(=O)(=O)N(C)C)cc1NC(=S)NC(C)CCC(C)C (configuration not stated),10,2,7,2394,8,2.3,-5
CCN(CCCNC(=O)c1nn(C)c2c1CS(=O)(=O)c1ccccc1-2)Cc1ccccc1,1,-6,-12,4347,2,1.1,1
CCOc1ccc(OCC(=O)OCC(=O)NNC(=O)c2ccc([N+](=O)[O-])cc2)cc1,2,21,10,5679,9,2.0,-6
c1ccc(-c2noc(CN3CCCC(OCc4ccccn4)C3)n2)cc1 (configuration not stated),5,-6,4,4272,5,1.0,0
CCOc1ccc(OCC)c(NC(=O)CCS(=O)(=O)c2ccc(Br)s2)c1,7,5,2,3711,4,8.3,-14
O=C(CCc1ccccn1)N1CCCC(Nc2cccc(F)c2)C1 (configuration not stated),4,-14,7,4058,6,2.8,-1
COc1ccc(NC(=O)c2ccc3c(=O)n4c(nc3c2)CCCCC4)cc1,2,16,5,5847,6,4.9,-29
COc1ccc(Cl)cc1NC(=S)NCCN1CCOCC1,-3,7,3,4347,0,2.1,-17
O=C(O/N=C1\CCCc2ccccc21)c1cccc(Cl)c1,.,.,-1,12973,.,.,-23
CCC(C)C1Nc2ccc(C(=O)NCc3ccc4c(c3)OCO4)cc2NC1=O (configuration not stated),-2,5,-2,3829,-4,2.1,-12
CC1(C)CC(NC(=O)C23CCC(C)(C(=O)C2)C3(C)C)CC(C)(C)N1 (configuration not stated),1,-2,18,21112*,1,5.6,-9
Cc1ccc(C(=O)C(C)OC(=O)CCN=C2NS(=O)(=O)c3ccccc32)cc1 (configuration not stated),-2,6,3,6146,-2,2.2,4
# The listing continues.
SMILES,Mtb hypoxia rep,Mtb hypoxia rep growth,BJeLR lethal,Autofluor counter,ugtP null kill,Sa RN4220 lethal,PrP UTR inh
Cc1oc2ccc(O)cc2c1C(=O)c1ccc(Cl)cc1,5,9,0,3360,-3,3.6,-29
O=C(NCCCN1CCN(c2cccc(Cl)c2)CC1)C1(S(=O)(=O)c2ccc(Cl)cc2)CC1,5,14,-8,3956,-5,-2.6,-18
CC1Cc2ccccc2N1C(=O)CO/N=C/c1ccc(OC(F)F)cc1 (configuration not stated),.,.,-5,2240,.,.,-8
CNC(=S)NN=C1C2CN3CCN(C2)CC1(c1ccccc1)C3,12,0,.,.,2,2.9,.
COc1ccc(CCNCc2cc3ccc(C)cc3[nH]c2=O)cc1OC,6,-2,0,3197,0,0.3,-5
CC(=O)c1c(C)[nH]c(C(=O)COc2ccc3c(C)cc(=O)oc3c2)c1C,-16,-3,.,3750,-7,-6.2,-12
COC(=O)c1cccc(/C=N/NC(N)=S)c1O,.,.,15,4096,.,.,-49
COc1ccc(S(=O)(=O)N2CCC(C(=O)NCc3ccccn3)CC2)cc1C,.,.,-7,2120,2,5.0,-10
O=S(=O)(Nn1cnnc1)c1ccccc1Cl,.,.,-7,3686,-3,0.5,-17
CCC(C(=O)NC1CCCC1)N(C(=O)Cn1nnc(-c2ccc(OC)c(OC)c2)n1)c1cccc(O)c1 (configuration not stated),2,-3,2,5462,3,-0.7,-3

# In the list so far, these contain a COOH group:
SMILES,Mtb hypoxia rep,Mtb hypoxia rep growth,BJeLR lethal,Autofluor counter,ugtP null kill,Sa RN4220 lethal,PrP UTR inh
Cc1ccc(-n2c(SCC(=O)N/N=C/c3ccccc3OCC(=O)O)nc3ccccc3c2=O)cc1,.,.,-6,4488,.,.,-39
CCC(C)(C)c1ccc(Oc2cccc(C(=O)O)c2)cc1,1,7,-3,4605,-12,15,-42

# The list goes on.
SMILES,Mtb hypoxia rep,Mtb hypoxia rep growth,BJeLR lethal,Autofluor counter,ugtP null kill,Sa RN4220 lethal,PrP UTR inh
O=[N+]([O-])c1cc(C=NO)ccc1SCc1ccccc1,0,9,.,.,-6,4.7,.
Cc1cccc(CN2CCN(C(=O)c3cccc4ccccc34)CC2)c1,0,-3,0,3846,13,5.3,-6
CC(Sc1nnc(Nc2ccccc2)s1)C(=O)Nc1nc(-c2ccccc2)cs1 (configuration not stated),-4,8,12,4890,20,-0.1,-34
NS(=O)(=O)c1ccc(NC(=O)CCC(=O)c2ccc(Cl)s2)cc1,5,16,-15,5302,10,7.3,-4
Clc1ccc2[nH]c3c(c2c1)CNCC3,15,7,-2,3790,-13,-4.6,-5
CCN(CCCNC(=O)c1cn(CC)c2ccc(S(=O)(=O)N(C)C)cc2c1=O)c1cccc(C)c1,5,5,-5,5871,0,5.3,-3
Cc1cccc(NC(=O)C2CCCN2S(=O)(=O)c2ccc(F)cc2)c1C (configuration not stated),6,11,1,12322,-5,-1.8,-9
CCc1ccc(Nc2ccc(S(=O)(=O)N3CCOCC3)cc2[N+](=O)[O-])cc1,12,9,10,1872,4,4.1,-55
COc1ccc(C(=O)NC(=S)NNC(=O)c2c(-c3ccccc3)noc2C)cc1,-6,-2,-7,7773,11,40,-6
CC(C)[C@H](NC(=O)OCc1ccccc1)C(=O)OCc1cc(=O)oc2cc(O)ccc12,12,1,0,6468,-5,5.2,-18

# Retrieved by structure from the list above (3):
SMILES,Mtb hypoxia rep,Mtb hypoxia rep growth,BJeLR lethal,Autofluor counter,ugtP null kill,Sa RN4220 lethal,PrP UTR inh
Cc1ccc(S(=O)(=O)N(C)C)cc1NC(=S)NC(C)CCC(C)C (configuration not stated),10,2,7,2394,8,2.3,-5
O=C(CCCSc1nc(-c2ccco2)cc(C(F)(F)F)n1)NCC1CCCO1 (configuration not stated),14,0,1,3394,-4,-13,-16
Cc1oc2ccc(O)cc2c1C(=O)c1ccc(Cl)cc1,5,9,0,3360,-3,3.6,-29

# Following part
SMILES,Mtb hypoxia rep,Mtb hypoxia rep growth,BJeLR lethal,Autofluor counter,ugtP null kill,Sa RN4220 lethal,PrP UTR inh
Cn1cccc1C=NNC(=O)CSc1nc2ccccc2n1C,0,-15,.,.,3,2.0,.
COc1ccc(S(=O)(=O)NCCC(=O)OCC(=O)c2ccc[nH]2)cc1[N+](=O)[O-],3,4,.,7968,0,1.0,-24
O=C(Nc1ccc(N2CCN(C(=O)c3ccco3)CC2)cc1)c1ccc2c(c1)OCO2,0,3,-19,4131,8,3.0,-12
CC(C)(C)c1nn2cnnc2n(/N=C/c2cccc3ccccc23)c1=O,.,.,-13,1972,.,.,4
CC(C)(/C=N/NC(=O)CSCc1ccc(Cl)cc1)CCC#N,.,.,0,3000,.,.,-13
COc1ccc(C(=O)Nc2ccc3oc(-c4cccc(Cl)c4)cc(=O)c3c2O)cc1,-4,11,-22,3447,-4,-0.4,-10
Cn1cccc1C=NNC(=O)c1sc2cc(Cl)ccc2c1Cl,8,3,.,.,2,2.3,.
CCCN(C(=O)c1cccc(-n2cccc2)c1)c1c(N)n(Cc2ccccc2)c(=O)[nH]c1=O,-16,1,-7,7069,-5,0.1,-11
COCCn1nnnc1C(c1ccccc1)N1CCN(c2ccccc2)CC1 (configuration not stated),9,5,-1,3784,-1,2.6,-19
Cc1ccc(N=Cc2cc(Cl)cc(Cl)c2O)nc1,12,3,-6,2526,24,15,-13
Cc1nn(CC(=O)NCCCN2CCCC2)c(=O)c2nn(-c3ccccc3)c(C)c12,3,4,-5,5160,0,-0.9,-9
Cc1cc(Cl)ccc1OCC(=O)NNC(=O)c1ccco1,-3,-8,-3,4260,11,4.8,-13
Cc1ccc(-c2c(C(=O)NN=Cc3ccoc3)nnn2-c2nonc2N)cc1,5,-10,.,.,6,4.2,.
COc1ccc(CN(C(=O)c2snc(C(N)=O)c2N)C(CC(C)C)C(=O)NC2CCCCC2)cc1 (configuration not stated),16,7,1,3327,0,0.8,-13
COc1cc(CC(=O)Nc2ncc(C)s2)cc(OC)c1OC,.,.,-5,4850,0,-0.7,-8

# No enrichment for hits. About 4% of those tested had a hit in this group.
